Compound activity (PubChem BioAssay)
ALR H2O2 inh: inhibitors of human sulfhydryl oxidase ALR. purified ALR, DTT oxidation, H2O2 HRP-luminol luminescence. inhibition, % (concentration not given with the values). 290,000 compounds, 3.8% hits;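 active = mean and each replicate at 75% or more; inconclusive = only one of the two met; inactive = neither met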;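 note: stock transfer was 7.5 nL into about 7.5 µL; 0% = neutral wells and 100% = wells with inactivated enzyme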
Target sequence (P55789 whole entry, looked up): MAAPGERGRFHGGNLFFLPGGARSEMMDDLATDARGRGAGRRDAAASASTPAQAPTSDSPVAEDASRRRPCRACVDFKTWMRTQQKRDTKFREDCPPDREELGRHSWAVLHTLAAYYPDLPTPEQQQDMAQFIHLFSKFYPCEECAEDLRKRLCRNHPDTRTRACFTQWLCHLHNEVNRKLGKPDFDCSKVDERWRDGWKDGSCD
Vif TR-FRET: HIV-1 Vif–A3G interaction blockers – biochemical, TR-FRET, GST-Vif 1-94, biotin-A3G peptide, dose response retest, primary screen (AID 1117319); TR-FRET GST-Vif / biotin-A3G peptide binding; higher % means a stronger effect; test concentration not given here; strong numbers were not always called active; inhibition, %; hits with a dose series show IC50 in µM; 260,000 compounds, 0.57% hits;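 active = above the screen mean plus three standard deviations and confirmed in dose response; inconclusive = results disagree or hit not tested in dose response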;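 note: Vif residues 1-94 fused to GST binding biotinylated APOBEC3G peptide 110-148; 0% = full assay without inhibitor and 100% = GST in place of GST-Vif; retest series ran down from 100 µM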
HNF4A DNA FP: change in binding of human HNF4 alpha to DNA. HNF4a-FITC DNA binding, fluorescence polarization, 1 h. activity change, % at 10 µM. 360,000 compounds, 0.3% hits. AID 1224865; in the data active = activity change above about 30%, passing the limit was not always enough;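 note: controls were the assay level and a saturating level of protein; the project sought stronger binding though the title names inhibitors; some compounds called inactive have numbers as strong as hits; positive values seem to mean higher polarization but the record does not say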
MLL AF4-AF9 inh: MLL-AF4/AF9 protein interaction inhibition | P42568 | AlphaScreen, biotin-AF4 peptide binding to FLAG-AF9 | inhibition, % at 10 µM | 350,000 compounds, 0.47% hits | AID 651704;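 active = every replicate reaching a set inhibition limit, whatever the replicate mean, cut at about 25% in these data; inconclusive = mean inhibition reaches that limit but some replicates miss it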;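 note: 0% = plate neutral control median and 100% = total signal loss; the record names both 10 and 1 µM as test concentration; the first replicate is given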
Target sequence (P42568 whole entry, looked up): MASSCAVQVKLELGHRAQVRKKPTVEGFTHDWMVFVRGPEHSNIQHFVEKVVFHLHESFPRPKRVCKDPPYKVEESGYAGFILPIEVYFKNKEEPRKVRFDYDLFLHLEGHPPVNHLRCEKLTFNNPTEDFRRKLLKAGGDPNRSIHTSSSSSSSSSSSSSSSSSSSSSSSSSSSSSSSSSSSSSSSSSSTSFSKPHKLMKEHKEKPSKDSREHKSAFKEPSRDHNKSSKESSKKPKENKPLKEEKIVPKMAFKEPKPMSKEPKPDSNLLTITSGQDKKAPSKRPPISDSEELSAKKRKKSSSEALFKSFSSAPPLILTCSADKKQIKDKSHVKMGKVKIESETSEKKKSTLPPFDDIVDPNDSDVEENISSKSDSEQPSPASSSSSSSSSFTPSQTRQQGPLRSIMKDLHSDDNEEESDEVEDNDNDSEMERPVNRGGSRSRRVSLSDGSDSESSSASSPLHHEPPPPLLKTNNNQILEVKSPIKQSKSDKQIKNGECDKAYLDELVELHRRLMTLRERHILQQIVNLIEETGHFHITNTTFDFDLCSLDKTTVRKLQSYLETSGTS
FGF22 binding: FGF22 (human) thermal shift binding; Q9HCT0; recombinant FGF22 thermal shift, SYPRO orange fluorescence; percent of sucrose octasulfate shift, DMSO zero; calls only at 9.99 µM; 340,000 compounds, 1.5% hits;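 active = melting point raised past a set limit in the mean and every replicate; inconclusive = no clear call; three in four hits are not shown here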
Target sequence (Q9HCT0 whole entry, looked up): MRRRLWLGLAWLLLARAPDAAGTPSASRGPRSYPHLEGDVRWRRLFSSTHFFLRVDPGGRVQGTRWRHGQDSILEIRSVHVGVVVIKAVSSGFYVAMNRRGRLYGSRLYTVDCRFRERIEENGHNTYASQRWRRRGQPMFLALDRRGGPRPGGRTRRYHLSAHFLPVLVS
E coli growth: blocks Escherichia coli growth; OD600, 23 h; active compounds read low; 330,000 compounds, 0.21% hits; OD600 absorbance (no concentration beside the values); AID 1053175;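 active = OD600 absorbance below the run mean of sample wells minus 3.6 SD, in any replicate, cut at about 0.56 in these data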;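 note: stock transfer was 300 nL into about 60 µL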
rRNA inh HTS: inhibitors of bacterial rRNA selective over humanized ribosomes. E. coli WT GFP vs humanized-ribosome RFP mutants, fluorescence, 24 h; active compounds read low; DMSO median 0, no signal -100. GFP signal change (wild-type ribosome), % (concentration not given with the values). 350,000 compounds, 1.6% hits. AID 720706;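 active = significant combined selectivity score with lowered wild-type GFP, culture density cut under 30%, mutant RFP and density less affected; inactive = any of these conditions unmet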; note: one replicate is shown; some compounds called inactive have numbers as strong as hits
rRNA inh HTS OD600: also measured in rRNA inh HTS; calls as there; OD600 change, %; measured here: OD600 growth;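 optical density of the mix in the first replicate; 0 = DMSO median and -100 = no signal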
rRNA inh HTS RFP: recorded beside rRNA inh HTS, whose call it bears; RFP signal change, %; measured here: RFP humanized mutant strains;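 first replicate; 0 = DMSO median and -100 = no signal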
* hit, by the source's call; i = inactive; ? = inconclusive; / = no result given; & = joins results of further samples.

nr	ALR H2O2 inh	Vif TR-FRET	HNF4A DNA FP	MLL AF4-AF9 inh	FGF22 binding	E coli growth	rRNA inh HTS	rRNA inh HTS OD600	rRNA inh HTS RFP	structure
1	0	/	2.0	/	i	0.65	-9	-13	3.2	N#C/C(=C\c1c(N2CCCCC2)nc2ccccn2c1=O)S(=O)(=O)c1ccccc1
2	/	3%	-0.8	1.2	i	/	5	6	12	Cc1cccc(NC(=O)c2ccc(NS(=O)(=O)c3cccc4cccnc34)cc2)c1
3	/	/	2.5	-2.4	i	/	4	5	-8.5	Cc1ccc(S(=O)(=O)N2C3CCCCC3O[C@H]2CC(=O)c2ccccc2)cc1 (some centres undefined)
4	-1	/	-2.4	-3.5&-3.2	i	/	-1&16	5&20	-1.4&8.1	CC(C)NC(=O)N(C)C[C@H]1Oc2ccc(NC(=O)C3CC3)cc2C(=O)N([C@H](C)CO)C[C@@H]1C
5	-1	?	-28	2.2	i	0.65	8	8	0.1	O=C(O)c1cccc(-n2cccc2/C=C2\NC(=O)N(Cc3ccc(F)cc3)C2=O)c1
6	/	?	-0.3	/	/	0.73	/	/	/	CCOc1cc(NC(=S)Nc2cccc(C)c2)c(OCC)cc1NC(=O)CC(C)C
7	/	/	1.3	2.8	i	0.7	-2	1	1.3	CC(C)Cc1ccc(CN2CCCC(NC(=O)c3nn(C)c(=O)c4ccccc34)C2)cc1 (centres undefined)
8	/	/	/	3.4	i	/	0	-4	3.7	O=C(CN1CCOCC1)N1CCCCN2[C@H](CO)[C@H](c3ccc(C#Cc4ccccc4)cc3)[C@H]2C1
9	1	0%	0.3	/	/	0.65	/	/	/	CCOC(=O)c1cnc(-c2cccc(OC)c2)[nH]c1=O
10	5	/	-7.1	-2.3	i	0.69	7	4	-5.6	CN(C)CCCN1C(=O)C2CCc3[nH]c4ccccc4c3C2C1=O (centres undefined)
11	-1	1%	1.3	/	/	0.71	/	/	/	NS(=O)(=O)c1ccc(CCNC(=O)[C@@H]2CCCN2S(=O)(=O)c2ccccc2F)cc1
12	/	/	/	-0.6	i	/	-6	-2	-1.2	CC(C)NC(=O)Nc1ccc2c(c1)C(=O)N([C@H](C)CO)C[C@H](C)[C@@H](CN(C)S(=O)(=O)c1cccs1)OCCCC[C@H](C)O2
13	-3	1%	0.6	-23	i	0.7	3	5	5.3	CC(C)C(=O)Nc1cc(C(F)(F)F)ccc1N1CCOCC1
14	-2	-3%	-0.6	0.7	i	0.59	/	/	/	COC(=O)c1ccc(S(=O)(=O)N2CCCN(Cc3ccc(F)cc3)CC2)n1C
15	-12	/	-2.3	0.4	i	0.65	5	7	-1.5	Cc1ccccc1-c1nc(CS(=O)(=O)CC(=O)N2CCN(C)CC2)c(C)o1

nr	ALR H2O2 inh	Vif TR-FRET	HNF4A DNA FP	MLL AF4-AF9 inh	FGF22 binding	E coli growth	rRNA inh HTS	rRNA inh HTS OD600	rRNA inh HTS RFP	structure
16	2	-4%	2.0	-3.8	i	/	14	10	0.8	CCc1ccccc1NC(=O)COc1ccc2c(=O)c(Oc3cc(C)ccc3C)coc2c1
17	-2	-4%	2.6	-3.2	i	0.7	17	8	-0.4	COc1ccc(NC(=O)CC2SC(N3CCOCC3)=NC2=O)cc1OC (centres undefined)
18	/	-5%	2.2	-0.4	i	0.64	12	11	-0.8	C=CCn1c(SCC(=O)c2c(N)n(C3CC3)c(=O)[nH]c2=O)nnc1-c1ccc(OC)cc1
19	-7	/	-2.0	-1.2	i	0.7	-1	3	1.1	Cc1c(NC(=O)c2cc3c(s2)CCCC3)c(=O)n(-c2ccccc2)n1C
20	-19	2%	5.9	/	/	0.73	/	/	/	Cc1ccc(-c2nnn(C(C)C(=O)N3c4ccccc4CCc4ccccc43)n2)cc1 (centres undefined)
21	89*	/	4.3	-5.7	i	0.67	-1	-8	3.1	CCOc1c(O)ccc(C2NC(=O)N(C)C(C)=C2C(=O)OC)c1[N+](=O)[O-] (centres undefined)
22	/	/	/	-0.1	i	/	1	0	-0.1	Cc1ccc(S(=O)(=O)Nc2ccc3c(c2)C(=O)N([C@H](C)CO)C[C@H](C)[C@@H](CN(C)S(=O)(=O)c2ccc(C)cc2)OCCCC[C@@H](C)O3)cc1
23	-6	4%	2.0	/	i	0.65	-27	-23	1.1	CC1c2ccsc2CCN1S(=O)(=O)c1ccccc1 (centres undefined)
24	/	4%	7.2	-2.3	i	/	-6	-10	7.3	CCC(=O)N(c1nnc(SCC(=O)Nc2sccc2C(N)=O)s1)C1CC1
25	6	/	1.4	-1.8	i	0.69	10	7	-1.1	Cc1cc(S(=O)(=O)ON2C(=O)c3ccccc3C2=O)ccc1F
26	/	1%	0.5	2.2&-1.1	i	0.72	5&-5	14&-12	-2.5&1.5	C[C@H]1CN([C@@H](C)CO)C(=O)Cc2cc(NS(=O)(=O)c3ccc(Cl)cc3)ccc2O[C@@H]1CN(C)C(=O)Nc1cccc2ccccc12
27	/	0%	-0.9	8.9	/	/	-9	-30	-3.9	Cc1ccc(C(=O)C=Cc2ccc3c(c2)OCO3)c(C)c1
28	/	-5%	-1.6	17	i	/	-4	-8	1.5	c1ccc(C(=NNc2nc3ccccc3s2)c2ccccn2)cc1
29	19	-4%	-4.0	0.2	i	0.65	-35	-69	7.4	CCCN(CC(=O)Nc1ccccc1C)CC(=O)Nc1ccc(Br)cc1F
30	/	/	-1.9	0.1	i	0.72	8	6	-3.2	O=C(NCCc1ccccc1C(F)(F)F)C1CCC(=O)N(CCCN2CCCC2=O)C1 (centres undefined)

A second format for 3 compounds above:
no.	structure	ALR H2O2 inh	Vif TR-FRET	HNF4A DNA FP	MLL AF4-AF9 inh	FGF22 binding	E coli growth	rRNA inh HTS	rRNA inh HTS OD600	rRNA inh HTS RFP
28	c1ccc(C(=NNc2nc3ccccc3s2)c2ccccn2)cc1	/	-5%	-1.6	17	i	/	-4	-8	1.5
18	C=CCn1c(SCC(=O)c2c(N)n(C3CC3)c(=O)[nH]c2=O)nnc1-c1ccc(OC)cc1	/	-5%	2.2	-0.4	i	0.64	12	11	-0.8
29	CCCN(CC(=O)Nc1ccccc1C)CC(=O)Nc1ccc(Br)cc1F	19	-4%	-4.0	0.2	i	0.65	-35	-69	7.4

Reprinted at random: five compounds from above
nr	ALR H2O2 inh	Vif TR-FRET	HNF4A DNA FP	MLL AF4-AF9 inh	FGF22 binding	E coli growth	rRNA inh HTS	rRNA inh HTS OD600	rRNA inh HTS RFP	structure
17	-2	-4%	2.6	-3.2	i	0.7	17	8	-0.4	COc1ccc(NC(=O)CC2SC(N3CCOCC3)=NC2=O)cc1OC (centres undefined)
29	19	-4%	-4.0	0.2	i	0.65	-35	-69	7.4	CCCN(CC(=O)Nc1ccccc1C)CC(=O)Nc1ccc(Br)cc1F
23	-6	4%	2.0	/	i	0.65	-27	-23	1.1	CC1c2ccsc2CCN1S(=O)(=O)c1ccccc1 (centres undefined)
24	/	4%	7.2	-2.3	i	/	-6	-10	7.3	CCC(=O)N(c1nnc(SCC(=O)Nc2sccc2C(N)=O)s1)C1CC1
25	6	/	1.4	-1.8	i	0.69	10	7	-1.1	Cc1cc(S(=O)(=O)ON2C(=O)c3ccccc3C2=O)ccc1F

Returning to the listing; the 4 compounds before the break are reprinted first.
nr	ALR H2O2 inh	Vif TR-FRET	HNF4A DNA FP	MLL AF4-AF9 inh	FGF22 binding	E coli growth	rRNA inh HTS	rRNA inh HTS OD600	rRNA inh HTS RFP	structure
27	/	0%	-0.9	8.9	/	/	-9	-30	-3.9	Cc1ccc(C(=O)C=Cc2ccc3c(c2)OCO3)c(C)c1
28	/	-5%	-1.6	17	i	/	-4	-8	1.5	c1ccc(C(=NNc2nc3ccccc3s2)c2ccccn2)cc1
29	19	-4%	-4.0	0.2	i	0.65	-35	-69	7.4	CCCN(CC(=O)Nc1ccccc1C)CC(=O)Nc1ccc(Br)cc1F
30	/	/	-1.9	0.1	i	0.72	8	6	-3.2	O=C(NCCc1ccccc1C(F)(F)F)C1CCC(=O)N(CCCN2CCCC2=O)C1 (centres undefined)
31	0	/	-0.8	/	/	0.71	/	/	/	Cc1c(NC(=S)Nc2ccccc2C(F)(F)F)cccc1[N+](=O)[O-]
32	-4	2%	2.1	-3.0	i	0.69	-7	0	-0.8	Cc1ccc(-c2nc(CS(=O)(=O)CC(=O)NC3CCC(C)CC3)c(C)o2)cc1 (centres undefined)
33	-1	/	1.5	-4.5	/	0.67	-12	-12	5.0	CC(OC(=O)c1ccc(Cl)c(S(=O)(=O)N2CCOCC2)c1)C(=O)NC1CCCCC1C (centres undefined)
34	-1	-1%	2.9	5.9	i	0.7	-20	-19	-5.0	CC(=O)Nc1ccc(N2CCC(C)CC2)c([N+](=O)[O-])c1
35	-4	/	-1.0	-0.9	i	0.68	8	-4	-1.2	CCN(CC(=O)N1CCOCC1)S(=O)(=O)c1ccc2ccccc2c1
36	-1	?	7.2	1.5	i	0.72	11	3	-3.7	CCOC(=O)c1cc2sccc2n1CC(=O)N1CCc2ccccc21
37	-28	-6%	2.3	2.3	i	0.65	2	4	-2.8	CCOc1ccc(N2C(=O)Nc3ccc(Br)cc3C2(O)C(=O)NC(C)C)cc1 (centres undefined)
38	-12	2%	-1.3	-17	i	0.62	1	-1	-1.3	COc1ccc(C)cc1S(=O)(=O)Nc1cc2c3c(c1)CC(=O)N3CCC2
39	5	3%	2.6	/	/	0.68	/	/	/	CC(OC(=O)c1cccnc1SCc1cc(=O)n2ccccc2n1)c1ccccn1 (centres undefined)
40	?	-6%	-0.7	4.8	i	0.68	8	3	1.7	COc1cccc(/C=C/C(=O)c2ccc(C)c([N+](=O)[O-])c2)c1
41	/	/	4.6	15&2.5	i	/	-18&-38	-34&-49	-2.0&-7.9	CC(C)NC(=O)N1Cc2cc(C(=O)NC3CCCC3)nc(-c3cccc(-c4cccnc4)c3)c2[C@H]1CCO
42	27	-1%	-2.1	/	/	0.68	/	/	/	Cc1ccc(-c2sc(C)nc2CC(=O)O)cc1
43	0	/	0.0	-1.4	i	0.7	-2	-11	-4.9	CCn1c(=O)c(=O)n(CC)c2cc(S(=O)(=O)Nc3cc(C)ccc3C)ccc21
44	-6	15%	2.5	/	/	0.72	/	/	/	CCOc1ccccc1OCCCCN1CCCC1
45	-6	-9%	-11	3.2	i	0.67	10	5	-2.4	O=C(c1cc(Cl)ccc1O)N1CCN(S(=O)(=O)c2cccs2)CC1

nr	ALR H2O2 inh	Vif TR-FRET	HNF4A DNA FP	MLL AF4-AF9 inh	FGF22 binding	E coli growth	rRNA inh HTS	rRNA inh HTS OD600	rRNA inh HTS RFP	structure
46	-5	-4%	4.0	1.3	i	0.7	-24	-48	-1.6	Cc1onc(-c2c(F)cccc2Cl)c1C(=O)c1ccccc1
47	/	/	-0.9	-1.2	i	0.66	1	-3	-1.9	O=C(CN(C(=O)CCC(=O)Nc1nccs1)c1ccccc1F)NCCc1ccccc1
48	/	2%	3.2	-4.2	i	0.74	2	9	2.2	Cc1ccc(NC(=O)C2C3C=CC4(CN(Cc5cccnc5)C(=O)C24)O3)cc1F (centres undefined)
49	/	/	/	-6.5	i	/	1	-10	-1.3	C[C@H]1CN([C@@H](C)CO)S(=O)(=O)c2ccc(-c3cncnc3)cc2O[C@H]1CN(C)C(=O)Cc1cccnc1
50	/	/	/	-1.8	i	/	-6	3	-4.9	CCCC#Cc1ccc2c(c1)O[C@@H](CN(C)C(C)=O)[C@@H](C)CN([C@H](C)CO)S2(=O)=O
51	/	/	/	0.5	i	/	4	-1	-2.3	COCCNC(=O)C[C@H]1CC[C@@H](NC(=O)NC2CCCC2)[C@@H](CO)O1
52	-4	/	3.8	5.6	i	0.73	/	/	/	NC(=O)CC(NC(=O)c1ccccc1)c1ccc(NCc2ccc(F)c(F)c2)c([N+](=O)[O-])c1 (centres undefined)

These rows are one share of the data; the hit share may differ from the screen's.
